Screens as filed in PubChem BioAssay.
HIV TAR-Tat – TAR RNA-Tat peptide displacers, HIV-1, primary screen, biochemical, FRET, FAM/TAMRA-labeled Tat | HIV-1 TAR RNA, Tat peptide displacement FRET; active compounds read high | AID 1259389, 2018 | z-score (no concentration beside the values) | 100,000 tested, 0.6% active;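 further: score is relative to mean and SD of negative controls; some compounds called inactive have numbers as strong as hits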
CDC25B-CDK2 inh – primary biochemical HTRF screen for blockers of M-phase inducer phosphatase 2 binding to CDK2/cyclin A. HTRF CDC25B-CDK2/CyclinA binding, anti-His/anti-Flag; active compounds read high. P30305+P24941. 94,000 tested, 0.72% active. AID 1259370, 2018. z-score (concentration not given with the values);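 further: score is relative to mean and SD of negative controls; strong numbers were not always called active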
The depositor's hits bear a star; · = not tested or not shown.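 How the source made its calls: active means z-score from 3 up in half or more of its runs; inactive means the rest.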

Values in the order: HIV TAR-Tat | CDC25B-CDK2 inh
- CCCCN(Cc1ccco1)C(=O)c1cc2c(s1)-c1ccc(Cl)cc1S(=O)(=O)C2
  1.8 | -1.6
- COc1ccccc1-n1cnc2cc(NCc3ccco3)ccc21
  -0.57 | 6.2
- C=Cc1ccc(Cn2nc(-c3ccc(C)cc3)ccc2=O)cc1
  1.9 | 2.1
- CCOC(=O)CCc1c(C(=O)OCC)[nH]c(CC)c1C(=O)OCc1ccccc1
  · | 1.1
- C=CCSc1nc(N2CCOCC2)c2c(c1C#N)CCCC2
  · | -0.61
- CN(C)CCCNc1nc(-c2ccco2)c2c(c1C#N)CC(C)(C)OC2
  · | 1.3
- COC(=O)C1Cc2c([nH]c3ccccc23)CN1 (configuration not stated)
  · | -0.23
- O=C(c1ccc2c(c1)OCCO2)N(Cc1cccnc1)c1nc2ccc(Cl)cc2s1
  0.65 | ·
- Cc1c(C(=O)CN2CCN(c3ccc(C(F)(F)F)cn3)CC2)sc2ccc(Cl)cc12
  · | -0.98
- CCOC(=O)C(=O)NCc1ccc(/C=C2/N=C(C)C(C(=O)OCC)=C2O)o1
  · | 1.7
- Cc1ccc2nc3c(cc(C#N)c(=O)n3-c3ccccc3Br)c(=O)n2c1
  0.98 | -1.8
- Cc1nn(-c2ccc(Br)cc2)cc1-c1noc(C(=O)NC2CCCC2)n1
  -1.1 | ·
- COc1ccccc1NC(=O)c1oc2ccccc2c1NC(=O)c1cc2ccccc2o1
  0.59 | -0.45
- CC(C)(C)OC(=O)Nc1nnc(C(F)(F)C(F)(F)C(F)(F)F)s1
  · | -2.4
- c1ccc(COc2nsnc2N2CCOCC2)cc1
  · | -0.12
- CN1CCN(c2c(S(=O)(=O)c3ccc(Cl)cc3)cnc3ccc(F)cc23)CC1
  -0.64 | -1.8
- COC(=O)C1C(c2ccc(Cl)cc2)NC(c2ccc(Cl)cc2)C(C(=O)OC)S1(=O)=O (configuration not stated)
  · | 0.03
- Cn1c(C(O)c2ccccc2)nc2ccccc21 (configuration not stated)
  0.93 | -1.1
- CCC(O)c1nc2ccccc2n1Cc1ccccc1 (configuration not stated)
  -0.02 | -2.8
- O=C(OCc1cc(=O)n2c(-c3ccccc3)csc2n1)c1ccc2c(c1)OCO2
  -0.07 | ·

Brought forward from above: 7 entries, then new ones.
Values in the order: HIV TAR-Tat | CDC25B-CDK2 inh
- CC(C)(C)OC(=O)Nc1nnc(C(F)(F)C(F)(F)C(F)(F)F)s1
  · | -2.4
- c1ccc(COc2nsnc2N2CCOCC2)cc1
  · | -0.12
- CN1CCN(c2c(S(=O)(=O)c3ccc(Cl)cc3)cnc3ccc(F)cc23)CC1
  -0.64 | -1.8
- COC(=O)C1C(c2ccc(Cl)cc2)NC(c2ccc(Cl)cc2)C(C(=O)OC)S1(=O)=O (configuration not stated)
  · | 0.03
- Cn1c(C(O)c2ccccc2)nc2ccccc21 (configuration not stated)
  0.93 | -1.1
- CCC(O)c1nc2ccccc2n1Cc1ccccc1 (configuration not stated)
  -0.02 | -2.8
- O=C(OCc1cc(=O)n2c(-c3ccccc3)csc2n1)c1ccc2c(c1)OCO2
  -0.07 | ·
- CCN1CCCC1CN1C(=O)c2c(NC(C)=O)c3cc(F)ccc3n2CC1(C)C(=O)NC1CCCC1 (configuration not stated)
  0.36 | ·
- COc1cccc(N2CC(O)=C(c3nc4ccccc4c(=O)[nH]3)C2=N)c1
  1.1 | -3.6
- Cc1[nH]c(=O)[nH]c(=O)c1S(=O)(=O)Nc1ccc(-c2ccno2)cc1
  1 | ·
- O=C(Cn1cc(C(F)(F)F)ccc1=O)c1ccc(Cl)cc1Cl
  · | -1.2
- COc1ccc(-c2cc(C(F)(F)F)nc(SCC(=O)NC3CCCC3)n2)cc1OC
  0.44 | 0.15
- C=CCN(Cc1nc(-c2ccc(Cl)cc2)no1)S(=O)(=O)c1ccc(OC)cc1
  1.2 | -0.94
- COC(=O)c1ccc(C(=O)O)nc1
  · | 0.34
- Cc1nnc(NC(=O)CNC(=O)Cn2c(C)cc3ccccc3c2=O)s1
  · | 1.4
- CSc1nc2sc3c(c2c(=O)n1C)CC(C)(C)OC3
  -0.13 | 0.08
- CCNc1cc(N2CCN(C(=O)c3ccco3)CC2)c2noc3c2c1C(=O)c1ccccc1-3
  2.6 | -1.6
- COc1cccc(NC(=O)Nc2csc3c2CCCC3)c1
  -0.27 | 1.4
- CC(C)CCN1NC2(CCCCC2)NC1=S
  · | 0.02
- CCN1CCN(C(c2ccc(C)cc2)c2sc3nc(C)nn3c2O)CC1 (configuration not stated)
  · | -1.6
- CCc1cc(N2CCN(c3cccc(Cl)c3)CC2)n2ncnc2n1
  0.46 | -2.4
- CCn1c(=O)n(CC(=O)O)c2ccccc21
  -1.1 | -1.5
- CCCc1cc(=O)[nH]c(Nc2cccc(Br)c2)n1
  0.79 | -0.65
- Cc1csc2nc(COC(=O)c3ccc(Cl)cc3)cc(=O)n12
  -0.71 | ·
- Cn1cnc2c1c(=O)n(CCNCCO)c(=O)n2C
  2.7 | -0.69
- O=c1[nH]c2ccc(F)cc2[nH]c1=O
  · | -0.31
- CC1=C(C(=O)OCC2CCCO2)C(c2ccccc2Br)C2=C(CCCC2=O)N1 (configuration not stated)
  -0.17 | -1.7
- O=c1c2ccccc2ncn1Cc1noc(-c2ccc(Br)cc2)n1
  0.48 | ·
- CCOC(=O)c1ccccc1NC(=O)c1cc(C(=O)OC)cc([N+](=O)[O-])c1
  · | -2.1
- O=S1(=O)C[C@H](NCc2ccccn2)[C@@H](S(=O)(=O)c2ccccc2)C1
  -2.2 | -0.95
- Cc1cccc(N2CCN(S(=O)(=O)c3cnc[nH]3)CC2)c1C
  2.6 | -0.94
- O=[N+]([O-])c1ccc(F)c(N(CS(=O)(=O)c2ccccc2)CS(=O)(=O)c2ccccc2)c1
  · | -1.6
- CCc1ccc(-c2cc(C)no2)cc1S(=O)(=O)NCc1ccc(F)cc1
  1.1 | ·
- CC1(C(=O)NC2CCCC2)Cn2c(nc3ccccc32)C(=O)N1Cc1ccco1 (configuration not stated)
  -0.45 | ·
- N#CC1=C(N)Oc2ccc3ccccc3c2C1c1ccccc1 (configuration not stated)
  · | -1.1
- Fc1ccc(OCc2nn3c(C4COc5ccccc5O4)nnc3s2)cc1 (configuration not stated)
  1.1 | -0.28
- O=[N+]([O-])c1cc([N+](=O)[O-])c2cccnc2c1NNc1nncc2ccccc12
  · | 0.57
- O=C(C1CCCN(c2nnc(-n3cccc3)s2)C1)N1CCCC1 (configuration not stated)
  0.04 | -0.04
- CCOC(=O)Cn1c(=O)c2c(nc3n2CCCCN3c2ccc(OCC)cc2)n(C)c1=O
  1 | -0.99
- CC(=O)NC1=NN(C(C)=O)C(c2cc(C)ccc2OCCOc2cc(C)cc(C)c2)S1 (configuration not stated)
  0.56 | -0.26
- COc1cccc(C2CC(=O)N3CN(Cc4ccco4)CSC3=C2C#N)c1OC (configuration not stated)
  0.63 | 3.4*
- N#Cc1nc(-c2ccc(S(=O)(=O)N3CCc4ccccc4C3)cc2)oc1N1CCc2ccccc2C1
  -1.1 | -1
- CCCCN(CC)CCNC(=O)Cn1nc(C)n2cccc2c1=O
  3 | -1.9
- Cc1cn2c(=O)c(S(=O)(=O)NCC3CCN(Cc4ccc(Cl)cc4)CC3)c(C)nc2s1
  0.02 | ·
- CCOc1ccc(-n2nnc3c(=O)[nH]cnc32)cc1
  1.4 | -1.8
- CCOCCOC(=O)C1=C(C)NC2=C(C(=O)CCC2)C1c1ccc(OC)c(OC)c1 (configuration not stated)
  0.65 | 0.97
- O=C(NCCC1=CCCCC1)C1CCCN(S(=O)(=O)c2ccc3[nH]c(=O)ccc3c2)C1 (configuration not stated)
  0.73 | ·
- CCOc1ccc(Nc2nc(C3(C)CC4(CC(C)(C)OC4=O)C(=O)O3)cs2)cc1 (configuration not stated)
  · | -1.9
- O=C(Cn1cc2c(n1)CCCCC2)N1CCc2ccccc21
  · | -2.3
- CCC(C(=O)Nc1cc(OC)c(Cl)cc1OC)c1ccccc1 (configuration not stated)
  · | -2.4
- CC(C)(C)c1ccc(Cn2c(CCCO)nc3ccccc32)cc1
  -0.1 | 1.4
- COCCNc1nc2ccc(C(=O)c3ccccc3)cc2n2cnnc12
  -0.61 | ·
- CCN1C(=O)C2(c3ccccc31)C(C(=O)Nc1ccc(Cl)cc1)CC1CSCN12 (configuration not stated)
  -0.21 | ·
- CCc1cc(C(=O)NCc2ccco2)no1
  -0.26 | -1.1
- O=C(c1cccn2c(=O)c3sccc3nc12)N1CCN(c2cccc(C(F)(F)F)c2)CC1
  · | -0.02
- CC(C)c1ccc(-c2c(NCCC3=CCCCC3)c(=O)c2=O)cc1
  2 | ·
- O=c1nc(Nc2ccccc2)c2ccccc2[nH]1
  -3.3 | -0.87
- CCOC(=O)c1c(S(=O)(=O)Nc2cccc3c2CCCC3)c(C)n(C)c1C
  0.55 | ·
- O=C1CC(NC2CCN(c3ncccn3)CC2)C(=O)N1c1ccc(F)cc1 (configuration not stated)
  0.32 | -1.1
- CC1Cc2ccccc2N1S(=O)(=O)c1ccc(-c2cc(C(F)(F)F)on2)s1 (configuration not stated)
  1.1 | ·
- Cc1ccc(C)c(NC(=O)N2CCN(c3nc(C)cc(N(C)C)n3)CC2)c1
  1 | ·
- Cc1ccc2c(c1)c1c(n2C)C(C#N)CCC1 (configuration not stated)
  · | -0.54
- CCOC(=O)c1c(C)oc2nc(C)nc(N3CCN(c4ccccn4)CC3)c12
  2 | ·
- CCCCN(Cc1ccco1)S(=O)(=O)c1cc(-c2cc(C)no2)ccc1C
  1.2 | ·
- O=S(=O)(c1ccc(-n2cnnn2)cc1)N1CCN(c2ncccn2)CC1
  0.39 | -1.1
- Cc1noc(/C=C/N(C)C)c1S(=O)(=O)Nc1c(C)n(C)n(-c2ccccc2)c1=O
  0.07 | ·
- Cc1nc2nc(NCc3cccs3)[nH]n2c(=O)c1C
  1.6 | 1

(next part)
canonical_smiles | HIV TAR-Tat | CDC25B-CDK2 inh
CCOCCCN(C)C1CCN(S(=O)(=O)c2csc(C(N)=O)c2)CC1 | 0.82 | ·
O=c1ccc2cc(S(=O)(=O)N3CCN(C4CCCCC4)CC3)ccc2[nH]1 | 19* | ·
O=C(NCc1ccccc1)C1CC2CCCN2C12C(=O)Nc1ccccc12 (configuration not stated) | -0.44 | -0.01
CCCNc1ncnc2c1cnn2-c1ccc(Cl)cc1 | 1.6 | ·
CC(=O)N(c1ccccc1)c1nc(C)cc(C)c1C#N | · | -0.79
Cc1ccc(N2CC(C(=O)N3CCN(c4ccc(-c5noc(C6CCC6)n5)cc4)CC3)CC2=O)cc1C (configuration not stated) | -0.23 | ·
CCOC(=O)C1CCCN(c2c(NCCCN3CC(C)CC(C)C3)c(=O)c2=O)C1 (configuration not stated) | 1.3 | -0.43
CN1C(C(=O)N2CCN(c3ccc(F)cc3)CC2)=CC(c2ccc3c(c2)OCO3)=NS1(=O)=O | 2.8 | -2.4
Cc1cccc(C2Nc3ccc(C(=O)O)cc3C3C4CCC(C4)C23)c1 (configuration not stated) | 2.3 | -0.82
c1ccc(N2CCN(c3ncc4c(n3)CCNC4)CC2)cc1 | 0.22 | -0.42
COc1ccc(OCc2nn3c(Cn4nnc5ccccc54)nnc3s2)cc1 | 0.78 | -1.7
Cc1nc(-c2ccccn2)nc(NCCNc2cccc(C(F)(F)F)n2)c1Cl | · | -0.48
Cc1cn2c(=O)c(S(=O)(=O)Nc3ccc(C)c(Cl)c3)c(C)nc2s1 | 0.7 | ·
COc1ccc(Cl)cc1NS(=O)(=O)c1cccs1 | -0.42 | 0.87
CCOC(=O)Cc1nnnn1C | · | -1.4
CSC(SC)=C(C#N)C#N | · | -3.3
COCCN1C(=O)c2ccc(-c3ccco3)n2CC1(C)C(=O)NC1CCC(C)CC1 (configuration not stated) | -5.3 | ·
CC(C)c1nc2sc3c(N4CCCC4)ncnc3c2c2c1COC(C)(C)C2 | 1.1 | 0.13
Cc1cccc(C)c1N1C(=O)N2CCCN2C1c1ccc(F)cc1 (configuration not stated) | 1.5 | -0.54
CCc1ccc(-c2cc(C)no2)cc1S(=O)(=O)NCc1ccc2c(c1)OCO2 | 0.43 | ·

Fetched by compound from the list above:
canonical_smiles | HIV TAR-Tat | CDC25B-CDK2 inh
Cc1nc(-c2ccccn2)nc(NCCNc2cccc(C(F)(F)F)n2)c1Cl | · | -0.48
COCCN1C(=O)c2ccc(-c3ccco3)n2CC1(C)C(=O)NC1CCC(C)CC1 (configuration not stated) | -5.3 | ·
Cc1cccc(C)c1N1C(=O)N2CCCN2C1c1ccc(F)cc1 (configuration not stated) | 1.5 | -0.54
COc1ccc(Cl)cc1NS(=O)(=O)c1cccs1 | -0.42 | 0.87

The results go on.
canonical_smiles | HIV TAR-Tat | CDC25B-CDK2 inh
Cc1[nH]c(=O)[nH]c(=O)c1NCCO | 0.32 | -0.28
CSc1nn(C)c2cn[nH]c(=O)c12 | -0.05 | ·
O=C(Cc1c(C(=O)O)[nH]c2ccc(Cl)cc12)NC1CCCC1 | · | -0.46
Cc1ccc(Oc2ccc(C)cc2)cc1 | · | -0.86
CCOC(=O)c1ccc2c(c1)C1C=CCC1C(c1ccc(OC(C)=O)cc1OC(C)=O)N2 (configuration not stated) | -5.4 | 0.08
COc1cccc(-c2csc(NNC(=O)c3ccncc3)n2)c1 | · | 0.12
Fc1ccc(OCc2nn3c(Cc4ccccc4)nnc3s2)cc1 | 0.4 | -1.8
CCOC(=O)N1CCN(c2cc(=O)n(-c3ccccc3F)c(=O)[nH]2)CC1 | 2.1 | ·
O=C(Oc1ccc(-c2nc(-c3cccnc3)no2)cc1)c1ccccc1 | 3.6 | ·
O=C1NC(c2cccc(Cl)c2)C2COc3ccccc3C2N1 (configuration not stated) | · | -0.98
Cc1ccc(S(=O)(=O)Nc2ccc(-n3ccc(C(F)(F)F)n3)cc2)cc1 | · | -0.7
Cn1c(=O)oc2cc(S(=O)(=O)Nc3ccccc3O)ccc21 | -5.4 | -1.1
CCCc1nn2c(=O)cc(COC(=O)c3ccc(OC)c(OC)c3)nc2s1 | 1.3 | ·
CCOC(=O)c1ccc2nonc2c1 | · | -0.3
COc1cccc(-c2noc(-c3cc(C4CC4)[nH]n3)n2)c1OC | -0.57 | ·
